Assay outcomes from PubChem BioAssay.
HPGD inh – inhibitors of human 15-hydroxyprostaglandin dehydrogenase (HPGD); P15428; purified HPGD, NADH fluorescence kinetic, PGE2 substrate; Potency, µM, for the others: top-dose activity change, negative = inhibition, most hits filed as inhibitors; hit rate 4.3% among 150,000; AID 894; active = well fitted inhibition curve with a large enough effect (not every such curve was filed as active); inconclusive = small, poorly fitted or top-dose-only effect, or another doubt; inactive = no such curve, though single readings can be large or run the other way;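 also: top concentration of the series not given in the record; plate controls included wells without enzyme; inactives centre near -10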
Target sequence (P15428 whole entry, looked up): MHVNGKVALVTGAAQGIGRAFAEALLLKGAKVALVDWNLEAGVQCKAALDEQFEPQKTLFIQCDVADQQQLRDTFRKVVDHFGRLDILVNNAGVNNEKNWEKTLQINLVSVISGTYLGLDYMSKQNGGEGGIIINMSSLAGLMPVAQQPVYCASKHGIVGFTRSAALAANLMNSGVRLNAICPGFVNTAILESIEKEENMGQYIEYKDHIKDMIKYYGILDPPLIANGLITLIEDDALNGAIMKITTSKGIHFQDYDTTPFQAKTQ
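20 nM HPGD preincubated 15 min at room temperature with compound in 50 mM Tris-HCl pH 8, 0.01% Tween 20. Started with 1 mM NAD+ and 30 uM prostaglandin E2; NADH fluorescence (360/450 nm) read 5 times over 30-s intervals, last minus first.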
Numbers without * were called inactive; ? = inconclusive; & = joins results of further samples. % is scaled to controls: 0 for no effect and ±100 for the full control effect; potency is read from the fitted curve at half-maximal effect. The list is partial; rates above refer to the full screens.

Start of the data: the first 17 entries as a preview:
SMILES	HPGD inh
CCNC(=O)CC1C(=O)N(c2cccc(OC)c2)C(=O)N1CCOC (configuration not stated)	-13%
O=c1c2c(ncn2C2CCCC2)n(Cc2ccccc2)c(=O)n1CCOc1ccc(Br)cc1	-8%
Cc1csc(SCC(=O)Nc2ccc(Cl)cn2)n1	-15%
O=C(O)NCC1CCCCC1 (tested in a mixture with another compound)	-11%
CC(=O)N(C)C1=C(N2CCOCC2)C(=O)c2ccccc2C1=O	-7%
COc1ccc(/C(C)=N/OCC(=O)N=Nc2c(O)[nH]c3ccc(Br)cc23)cc1	-3%
COc1cc2[nH]c(-c3cccc(F)c3)cc(=O)c2cc1OC	?
CCOc1ccc(S(=O)(=O)N/N=C2/CC(c3ccccc3)Oc3ccccc32)cc1 (configuration not stated)	-8%
COc1ccccc1-n1c(CCn2nc(C)c(Br)c2C)n[nH]c1=S	?
CCP(=O)(c1ccccc1)C(C)(C)O (configuration not stated)	-1%
CC1(C)Cc2c(sc3c2C(=O)N(c2ccccc2)C2=NCCCN23)CO1	-7%
O=C(c1ccccc1)N1CCN(CC#Cc2ccccc2)CC1	-18%
Cc1ccc([N+](=O)[O-])c(OCCN2CCCCCC2)c1	-12%
Cc1ccc(NC(=S)NN(C)c2nc(C)cnc2C)cc1	-6%
CNc1nnc(CSc2nc(C)cc(C)n2)s1	-13%
COC(=O)C1=C(CSCc2ccccc2)NC(=O)NC1c1cc(C)ccc1C (configuration not stated)	-4%
O=C(CN(c1ccccc1)S(=O)(=O)c1ccccc1)NCCSc1nc2ccccc2s1	-9%

The whole of this part, from the start:
SMILES	HPGD inh
CCNC(=O)CC1C(=O)N(c2cccc(OC)c2)C(=O)N1CCOC (configuration not stated)	-13%
O=c1c2c(ncn2C2CCCC2)n(Cc2ccccc2)c(=O)n1CCOc1ccc(Br)cc1	-8%
Cc1csc(SCC(=O)Nc2ccc(Cl)cn2)n1	-15%
O=C(O)NCC1CCCCC1 (tested in a mixture with another compound)	-11%
CC(=O)N(C)C1=C(N2CCOCC2)C(=O)c2ccccc2C1=O	-7%
COc1ccc(/C(C)=N/OCC(=O)N=Nc2c(O)[nH]c3ccc(Br)cc23)cc1	-3%
COc1cc2[nH]c(-c3cccc(F)c3)cc(=O)c2cc1OC	?
CCOc1ccc(S(=O)(=O)N/N=C2/CC(c3ccccc3)Oc3ccccc32)cc1 (configuration not stated)	-8%
COc1ccccc1-n1c(CCn2nc(C)c(Br)c2C)n[nH]c1=S	?
CCP(=O)(c1ccccc1)C(C)(C)O (configuration not stated)	-1%
CC1(C)Cc2c(sc3c2C(=O)N(c2ccccc2)C2=NCCCN23)CO1	-7%
O=C(c1ccccc1)N1CCN(CC#Cc2ccccc2)CC1	-18%
Cc1ccc([N+](=O)[O-])c(OCCN2CCCCCC2)c1	-12%
Cc1ccc(NC(=S)NN(C)c2nc(C)cnc2C)cc1	-6%
CNc1nnc(CSc2nc(C)cc(C)n2)s1	-13%
COC(=O)C1=C(CSCc2ccccc2)NC(=O)NC1c1cc(C)ccc1C (configuration not stated)	-4%
O=C(CN(c1ccccc1)S(=O)(=O)c1ccccc1)NCCSc1nc2ccccc2s1	-9%
COC(=O)c1ccc(-n2nnnc2SCC(=O)Nc2ccccc2C(=O)OC)cc1	-22%
CCC(=O)c1ccc(N2CCN(C(=O)COc3ccc(F)cc3)CC2)c(F)c1	-23%
Fc1cc2nccnc2cc1N1CCSCC1	-5%
CC1=C(C(=O)Nc2ccccc2)C(c2ccc(C)o2)n2c(s/c(=C\c3ccco3)c2=O)=N1 (configuration not stated)	-7%
CCCCOC(=O)n1c(SCC(=O)N(CC)CC)nc2ccccc21	-2%
COc1ccc(C(=O)Nc2ccc(C)cc2C(=O)c2ccccc2)cc1	-10%
COc1cc(NC(=O)CSc2nnc(-c3ccncc3)n2C2CCCCC2)ccc1NC(=O)c1ccco1	-21%
CCCOc1ccc(-c2nc(C#N)c(N3CCc4ccccc4C3)o2)cc1	?
CC1(C)CC(=O)c2cn3c(nc2C1)nc1ccccc13	-28%
O=C(NCc1ccccn1)c1cc2cc(Br)ccc2oc1=O	2%
CCN(CC)c1nc(Oc2ccc(=O)[nH]n2)nc(N2CCOCC2)n1	-12%
CCOc1ccc(NC(C)=O)cc1N	-9%
COc1ccc(C(=O)Nc2ccc(/C(C)=N/NC(=O)c3ccccc3O)cc2)cc1OC	-24%
c1csc(CNc2ncncc2-c2ccc3c(c2)OCO3)c1	?
CCN(CC)CCCNc1oc(-c2ccc(OC)c(OC)c2)nc1C#N	?
Cc1c(-c2cccs2)[n+](=O)c2c(n1[O-])CCC2	-3%
Cc1ccccc1/C=N/NC(=O)Cn1nnc(N)n1	-5%
O=C(NCc1ccc2c(c1)OCO2)c1cccc([N+](=O)[O-])c1	-8%
Nc1cc(-c2ccccc2)nn1S(=O)(=O)c1ccc(F)cc1	-15%
O=C(Nc1ccc(Cl)cc1C(=O)Nc1ccccn1)c1ccco1	?
COc1cc(C2C(C#N)=C(N)Oc3c2c(-c2ccccc2)nn3-c2ccccc2)cc(OC)c1OC (configuration not stated)	-21%
CCCC(Cl)CCCC(Cl)CCC(Cl)CCC(Cl)CCC(Cl)CCCC(Cl)CCC (configuration not stated)	-21%
Cc1ccc(S(=O)(=O)N(CCC(=O)Nc2ccc(OC(F)(F)F)cc2)c2ccccc2)cc1	-24%
CCOC(=O)c1[nH]c2ccccc2c1NC(=O)COC	-24%
COc1ccc(C)cc1NC(=O)CN1CCN(S(=O)(=O)c2ccc(Br)cc2)CC1	-10%
O=C(CCc1nc(-c2ccccc2F)no1)NCCc1ccccc1Cl	-6%
CCn1c(SCC(=O)Nc2ccc3c(c2)OCCO3)nnc1-c1cccs1	1%
CCN(CC)CCNC(=O)c1ccc(NC(C)=O)cc1	-4%&-20%&-7%
COC(=O)c1sc(NC(=O)COc2cccc(C)c2)nc1C	-6%
CCCNC(C)(C)COC(=O)c1ccccc1	-2%
CC1(C)Cc2ccccc2-c2nc(-c3ccccc3)oc(=O)c21	-2%
COc1ccc2nc(Nc3nc4cc5c(cc4s3)OCO5)sc2c1	?
COc1cc(/C=N/NC(=O)c2cccc([N+](=O)[O-])c2)ccc1OCc1ccccc1	?
O=C(O)CCCC(=O)Nc1ccc(C(=O)NCc2cccnc2)cc1	-2%
CCn1c2c(c3cc(Br)ccc31)CCC/C2=N\O	-6%
CCN(c1ccccc1)c1ncnc2c1cnn2-c1ccccc1	?
O=C1CCC(C(=O)OCc2ccccc2)N1 (configuration not stated)	1%
COc1cc(CN2CCN(c3ccccc3C)CC2)cc([N+](=O)[O-])c1O	-9%
c1ccc(-c2nnc(-c3ccccc3)c(-c3c[nH]c4ccccc34)n2)cc1	-9%
COc1ccc2[nH]c(=O)c(CN(CCO)C(=O)NCc3ccccc3)cc2c1	?
COc1cc(-c2[o+]c3cc(O)cc(O)c3cc2O)cc(O)c1O	-11%
O=C(NNC(=S)Nc1ccc(F)cc1)C1CC1c1ccc(Cl)cc1 (configuration not stated)	16µM*
CCC#CCOCC(=S)Nc1ccccc1	-15%

Next compounds
SMILES	HPGD inh
CCc1c2c(nc3cccc(C(C)C)c13)-c1cccc(=O)n1C2	?
CSc1ncc(Cl)c(C(=O)Nc2nnc(SC)s2)n1	-15%
O=C(NCCc1ccccc1)c1ccc(Cl)nc1	-14%
COc1ccccc1N1CCN(C(=O)C2CC=CCC2C(=O)O)CC1 (configuration not stated)	-5%
COc1cccc(CNn2cnnc2)c1OCc1ccc(F)cc1	-4%
O=C1CC(c2c(F)cccc2Cl)C2=C(COC2=O)N1 (configuration not stated)	-4%
CCCCc1cc(=O)oc2cc(C)cc(OCc3nn[nH]n3)c12	?
CC(C)C(=O)Nc1cc(=O)[nH]c2ncnn12	-6%
O=C(Cn1cncn1)NCc1ccccc1Br	-16%
Cc1ccccc1NC(=O)CN(C)S(=O)(=O)c1cccc2cccnc12	-17%
O=C(CS(=O)CC(=O)Nc1cccc2c1CCCC2)Nc1ccc(F)cc1 (configuration not stated)	-3%
O=C(NCc1cccnc1)c1cccc(Cl)c1	2%
CC(C)C(C(=O)NCc1ccco1)N(C(=O)CNS(=O)(=O)c1ccc(Cl)cc1)C1CCCC1 (configuration not stated)	-14%
CC(C(=O)NCCC1=CCCCC1)N1C(=O)c2ccccc2C1=O (configuration not stated)	-15%
CC(c1ccccc1)n1cc(C(=O)NCCCn2ccnc2)nn1 (configuration not stated)	-15%
COc1cccc(CNCc2ccccn2)c1OC	5%
Cc1ccc(S(=O)(=O)NCc2ccc(C(=O)N3CCc4ccccc4C3)cc2)cc1	1.4µM*
COc1cc(C)ccc1OCCOCCOc1cc(C)c(C)cc1Br	-24%
O=C(NCC12CC3CC(CC(C3)C1)C2)c1nn2c(c1Cl)NC(c1ccco1)CC2C(F)(F)F (configuration not stated)	-16%
Cc1cc(C(=O)O)c2ccccc2n1	-12%
CN(c1cccc(NC(=O)CN(c2cccc(Cl)c2)S(=O)(=O)c2ccc(Cl)cc2)c1)S(C)(=O)=O	-6%
Cc1ccc(C(=O)/C=C/c2c[nH]c3ccccc23)cc1	?
NNc1nccc(Nc2ccccc2C(=O)O)n1	?
CC(NC(=O)CCCN1C(=O)c2ccccc2C1=O)c1ccc2c(c1)CCCC2 (configuration not stated)	-11%
COC(=O)C(NS(=O)(=O)c1ccc(NC(C)=O)cc1)C(C)C (configuration not stated)	-8%
CCN1C(=O)c2ccccc2S(=O)(=O)c2ccc(C(=O)N3CCOCC3)cc21	-8%
S=C(Nc1ccc(Cl)cc1)N1CCN(C2CCCCC2)CC1	3%
COc1ccc(N=C2SC(CC(=O)Nc3ccccc3)C(=O)N2CCc2ccccn2)cc1 (configuration not stated)	-21%
O=C(NCc1ccc2c(c1)OCO2)C1CC(=O)N(c2ccc(O)cc2)C1 (configuration not stated)	-6%
CC(=O)Nc1c(C(=O)O)oc2ccccc12	-12%

Some values from the list.
Cc1cc(C(=O)O)c2ccccc2n1 @ HPGD inh: -12%
COc1cc(-c2[o+]c3cc(O)cc(O)c3cc2O)cc(O)c1O @ HPGD inh: -11%

Following part:
SMILES	HPGD inh
NC(=O)Nc1ccccc1C(=O)NCCc1ccccc1	-4%
O=C(CCCn1cnc([N+](=O)[O-])n1)Nc1ccc(Cl)cc1Cl	-16%
CC(=O)C1=C(C)NC(SCC(=O)c2ccc(C)cc2)=C(C#N)C1c1ccco1 (configuration not stated)	28µM*
CN1CCN(c2ccnc(-c3ccccc3C(F)(F)F)n2)CC1	-24%
N#CC(c1ccc(Cl)cc1)c1ccc2c(C(F)(F)F)cc(C(F)(F)F)nc2n1 (configuration not stated)	-10%
CCOC(=O)c1cc2c(C)nn(-c3ccccc3)c2s1	-11%
CCN(C(=O)CSc1nc2nc(C)cc(C)n2n1)c1ccccc1	14µM*
COc1ccc(O)c(C=Nc2cc(NC(C)=O)c(Cl)cc2Cl)c1	-7%
COc1c(Cl)cc(C(=O)Nc2ccccc2C(=O)O)cc1Cl	14µM*
CCC(=O)Nc1ccc(NC(=S)NC(=O)Cc2ccccc2)cc1	-27%
CN(Cc1cc(Cl)cc(Cl)c1O)Cc1c(O)ccc2ccccc12	-14%
O=C1CCCc2ccccc2N1Cc1ccc(Cl)cc1	0%
Cc1ccc(C)c(C(=O)COC(=O)c2ccccc2N2C(=O)C3C4CCC(C4)C3C2=O)c1 (configuration not stated)	-11%
COc1ccc(NC(=S)c2ccncc2)cc1	-5%
Cc1csc(SCCn2c(N3CCOCC3)nc3c2c(=O)[nH]c(=O)n3C)n1	-24%
COc1cccc(C2=NOC(C(=O)N3CCc4ccccc4C3)C2)c1 (configuration not stated)	-27%
Cc1cc2nc3c(=O)[nH]c(=O)nc-3n(C)c2cc1C=O	-10%
COc1cc2[nH]c(=O)n(CCC(=O)NCCC(C)C)c(=O)c2cc1OC	?
COC(=O)C1=C(C)N(CCCC(=O)O)C(=O)NC1c1ccc(-c2ccccc2)cc1 (configuration not stated)	-7%
CCOC(=O)N/N=C/c1cc(C)n(-c2ccccc2)c1C	-10%
Cc1cc2c(=O)[nH]cnc2s1	-12%
CCOC(=O)c1c(NC(=O)CSc2c[nH]c3ccccc23)sc2c1CCCC2	-30%
Cc1nc(CNS(=O)(=O)c2cccnc2)cs1	-8%
COc1cccc(C=Nc2cccnc2)c1O	-22%
CCOC(=O)Nc1c(C(=O)OC)[nH]c2cc(OC)ccc12	-29%
CCOc1ccc(NC(=O)CSc2nnc(Cn3cnc4ccccc43)n2C)cc1	-12%
O=C(Nc1nc(-c2ccccc2)cs1)c1cccc(S(=O)(=O)N2CCN(Cc3ccccc3)CC2)c1	?
CCCCc1ccc(NC(=O)CSCc2cc(=O)[nH][nH]2)cc1	-7%
CC(=O)N1N=C(c2ccc(C)cc2)OC1c1ccc(C)cc1 (configuration not stated)	-9%
COCCNc1cc(C)nc2c(-c3ccccc3OC)c(C)nn12	-9%
Cc1onc(-c2c(Cl)cccc2Cl)c1C(=O)NC(=S)Nc1sc2c(c1C(N)=O)CCC(C)C2 (configuration not stated)	-5%
Cn1c(=O)n(CC(=O)NC2CCCCC2)c(=O)c2ccccc21	-14%
CCCC[C@@H]1C[C@H]1C(NC(=O)c1ccco1)c1ccccc1C(F)(F)F (some centres not stated)	-8%
Cc1ccc2c(c1)NC(=O)C(CC(=O)NCCCN1CCCCC1C)O2 (configuration not stated)	-5%
Cn1c(N2CCN(C(=O)NC34CC5CC(CC(C5)C3)C4)CC2)nc2ccccc21	?
Cc1c(S(=O)(=O)O)oc2c1C(=O)C(=O)c1c-2ccc2c1CCCC2(C)C	?
CC(C)c1ccc(C(=O)NCc2ccc(Cl)cc2)cc1	-6%
COc1cccc(OCCCn2cc(/C=C3/C(=N)N4C=C(C)SC4=NC3=O)c3ccccc32)c1	?
CC1CC1c1ccc(/C=C(\C#N)C(=O)Nc2cccc(Cl)c2Cl)o1 (configuration not stated)	-4%
NS(=O)(=O)c1ccc(NCc2ccccc2OCc2ccc(F)cc2)cc1	-15%
NNc1nc(-c2ccccc2)cc(-c2ccccc2O)n1	-14%
C=CCNC(=S)Nc1ccccc1	-16%
